HNF4A DNA FP: change in binding of human HNF4A to DNA, primary screen, biochemical, fluorescence polarization, FITC-DNA; AID 1224865, 2016; 1 h; actives 0.3% (n = 360,000); activity change, % at 10 µM; in the data active = activity change above about 30%, passing the limit was not always enough;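 also: controls were the assay level and a saturating level of protein; the project sought stronger binding though the title names inhibitors; some compounds called inactive have numbers as strong as hits; positive values seem to mean higher polarization but the record does not say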
UCH37 inh: inhibitors of human UCH37 deubiquitinase, primary screen, biochemical, Ub-AMC cleavage, fluorescence. AID 588478, 2011. inhibition, % (no concentration beside the values). purified proteasome/UCH37. actives 0.33% (n = 330,000);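 active = mean of two replicates above 20%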;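 also: 0% = compound-free wells with enzyme and 100% = wells lacking proteasome; stock transfer was 100 nL into about 20 µL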
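System: Proteasome-associated human UCH37 deubiquitinase; Input: 0.15 nM proteasome in added enzyme buffer; Also added: Ub-AMC substrate from 1 µM stock; Incubation: 30 min compound-proteasome preincubation then 25 min substrate reaction, room temperature; Detection: fluorescence, ex 355 nm, em 460 nm; Read-out: % inhibition of Ub-AMC cleavage fluorescence; Benchmarks: no-proteasome and no-compound wells.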
ALR H2O2 inh: inhibitors of human ALR sulfhydryl oxidase, primary screen, biochemical, H2O2 detection, HRP-luminol luminescence, single point; FAD-linked sulfhydryl oxidase ALR (Homo sapiens), P55789; purified ALR, DTT oxidation; inhibition, % (no concentration beside the values); actives 3.8% (n = 290,000);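 active = mean and each replicate at 75% or more; inconclusive = only one of the two met; inactive = neither met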;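 also: stock transfer was 7.5 nL into about 7.5 µL; 0% = neutral wells and 100% = wells with inactivated enzyme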
Target sequence (P55789 whole entry, looked up): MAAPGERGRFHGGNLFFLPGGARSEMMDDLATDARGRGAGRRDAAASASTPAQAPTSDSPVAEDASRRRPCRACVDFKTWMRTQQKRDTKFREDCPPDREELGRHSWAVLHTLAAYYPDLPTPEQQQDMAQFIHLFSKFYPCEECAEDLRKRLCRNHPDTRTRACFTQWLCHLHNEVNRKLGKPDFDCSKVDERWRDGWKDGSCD
Ecoli growth: E. coli growth inhibition, primary screen, OD600 | actives 0.21% (n = 330,000) | OD600 absorbance (no concentration beside the values) | AID 1053175, 2014 | Escherichia coli growth, 23 h; active compounds read low;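 active = OD600 absorbance below the run mean of sample wells minus 3.6 SD, in any replicate, cut at about 0.56 in these data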;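 also: stock transfer was 300 nL into about 60 µL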
LANA-H2B inh: blockers of LANA interaction with H2A/H2B – biochemical, FP readout, HTS, primary screen | Protein LANA1 (Human herpesvirus 8 type P (isolate GK18)), Q9QR71 | cell-free LANA-H2A/H2B peptide, fluorescence polarization | inhibition, % (test concentration not listed) | actives 0.6% (n = 320,000); in the data active = inhibition mostly above about 10%, no sharp cut-off; inactive = mostly below about 6.7%;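 also: stock transfer was 7.5 nL into about 10 µL; 0% = median of vehicle wells and 100% = median of positive control wells; one replicate is shown; the record names a cut of 25% in any replicate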
Beta2AR agonist: beta2AR agonists driving receptor internalization, primary screen, cell-based, FAP fluorogen, flow cytometry | AID 504454, 2011 | Am2.2-beta2AR cells; reference of the scale not given here | response, % (no concentration beside the values) | actives 0.43% (n = 340,000);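 active = response above a set limit, near 3 SD of response in nonfluorescent compounds, cut at about 42% in these data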;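 also: stock transfer was 100 nL into about 11 µL; a reference agonist was the positive control; negative values mostly stem from fluorescent compounds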
Target sequence (P07550 whole entry, looked up): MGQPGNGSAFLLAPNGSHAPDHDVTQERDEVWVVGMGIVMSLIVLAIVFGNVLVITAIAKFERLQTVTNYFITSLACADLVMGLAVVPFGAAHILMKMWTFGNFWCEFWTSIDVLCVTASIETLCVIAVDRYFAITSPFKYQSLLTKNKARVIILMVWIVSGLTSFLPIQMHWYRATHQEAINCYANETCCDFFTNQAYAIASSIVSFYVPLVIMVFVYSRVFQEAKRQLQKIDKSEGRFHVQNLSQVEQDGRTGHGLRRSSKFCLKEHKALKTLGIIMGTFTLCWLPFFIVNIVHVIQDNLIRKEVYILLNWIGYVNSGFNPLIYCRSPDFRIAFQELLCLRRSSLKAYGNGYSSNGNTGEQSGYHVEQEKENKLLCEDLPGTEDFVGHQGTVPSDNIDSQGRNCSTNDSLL
FGF22 binding: binders of human FGF22 protein, primary screen, FGF22 synaptogenesis inhibitor project, biophysical, thermal shift, single point; recombinant FGF22 thermal shift, SYPRO orange fluorescence; percent of sucrose octasulfate shift, DMSO zero; calls only at 9.99 µM; actives 1.5% (n = 340,000); AID 651658, 2012;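 active = melting point raised past a set limit in the mean and every replicate; inconclusive = no clear call; three in four hits are not shown here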
Target sequence (Q9HCT0 whole entry, looked up): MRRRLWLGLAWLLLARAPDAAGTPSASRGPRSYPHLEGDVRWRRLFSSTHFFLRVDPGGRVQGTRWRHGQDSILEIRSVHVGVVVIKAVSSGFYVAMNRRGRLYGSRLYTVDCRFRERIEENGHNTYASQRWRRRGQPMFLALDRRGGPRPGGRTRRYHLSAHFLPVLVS
* hit, by the source's call; i = inactive; ? = inconclusive; / = not tested or not shown; + = active, no number. This is a subset; the hit share may differ from the screen's.

Every second line gives: HNF4A DNA FP	UCH37 inh	ALR H2O2 inh	Ecoli growth	LANA-H2B inh	Beta2AR agonist	FGF22 binding
Nc1ccc(C(=O)c2ccccc2C(=O)O)cc1Cl
→ -1.7	7.2	-37	0.64	-6.8	-12	i
Cc1cnc(C(=O)Nc2ccc(N3CCCCC3)cc2)cn1
→ 14	5.7	-15	0.62	-3.5	11	i
CCC1=NN(C(=O)Cc2ccccc2)C(O)(c2ccncc2)C1 (stereo unspecified)
→ 0.4	4.6	-3	0.68	-1.4	2	/
COc1cc(/C=N/OCC(=O)NC2CCCCC2C)ccc1OCc1ccc(Cl)cc1 (stereo unspecified)
→ 0.8	/	-1	/	2.6	-4	/
Cc1onc(-c2ccccc2Cl)c1C(=O)N(C)CC(=O)Nc1ccc(F)c(F)c1F
→ 0.8	0.6	1	0.7	-0.1	7	i
O=S(=O)(Oc1ccccc1)c1cccnc1
→ 1.7	4.3	0	0.7	7.7	-2	i
O=C(Nc1sccc1C(=O)N1CCOCC1)c1cccnc1
→ 1.8	2.0	7	0.76	3.3	0	i
CNc1nc(C23CC4CC(CC(C4)C2)C3)cs1
→ -3.3	-0.8	/	0.64	1.2	-2	i
COc1ccccc1CNC(=O)COC(=O)c1ccc(Cl)nc1
→ -1.3	-0.9	-1	0.7	4.0	-9	i
CN(C(=O)COC(=O)CN1C(=O)c2ccccc2C1=O)c1c(N)n(Cc2ccccc2)c(=O)[nH]c1=O
→ 1.5	/	-3	/	-1.5	2	i
CC(C)(CO)NS(=O)(=O)c1ccc2c(c1)C(=O)c1cc(S(=O)(=O)NC(C)(C)CO)ccc1-2
→ 0.3	3.4	/	0.72	-7.4	5	i
O=C(O)CCCC(=O)N1N=C(c2ccccc2)CC1c1ccc2nccnc2c1 (stereo unspecified)
→ -3.1	2.8	/	0.71	4.3	-2	/
COc1ccc(NC(=O)CSCc2cc(=O)n3nc(C4CC4)sc3n2)cc1
→ 0.7	5.4	41	0.68	-1.9	1	i
NCCNc1ccc([N+](=O)[O-])c(NC2CC2)c1
→ 2.1	9.9	/	0.71	-3.6	1	i
Cc1cc(C)c2nc(-c3ccccn3)cc(C(=O)NCc3ccc(S(N)(=O)=O)cc3)c2c1
→ 5.2	-33	0	0.7	-2.4	-6	i
CC(C)C(NS(=O)(=O)c1ccccc1)C(=O)NC1CCCC1 (stereo unspecified)
→ 2.7	4.1	-11	0.7	-3.5	8	i
O=C(CNC(=O)c1ccccc1)NCC(=O)OCC(=O)c1ccc(F)cc1
→ -2.0	1.7	-24	0.7	-0.7	-8	i
CC[C@@H](C)[C@@H]1CN([C@@H](C)CN2CCC[C@H]2CN2C(N)=NC[C@@H]2Cc2ccccc2)C(=N)N1CCCC1CCCC1
→ 0.3	3.3	6	/	3.6	-1	i
Cc1cc(Cl)ccc1OCCCC(=O)NCCN1C(=O)S/C(=C\c2cccnc2)C1=O
→ 5.9	2.5	-2	0.68	-2.4	19	i
CCOC(=O)N1CCC(N2C(=O)c3ccc(C(=O)NCc4ccco4)cc3C2=O)CC1
→ -1.1	0.3	-1	0.71	-1.8	-9	/
CC1(C)CC(=O)C(N=Nc2cccc([N+](=O)[O-])c2)=C(O)C1
→ 3.1	12	4	0.67	1.8	-9	i
Cc1ccnc(NS(=O)(=O)c2ccc(NS(=O)(=O)c3cc(Cl)ccc3Cl)cc2)n1
→ -0.8	2.4	9	0.62	14*	3	i
O=C1C(=O)N(CCN2CCOCC2)C(c2cccnc2)/C1=C(/O)c1ccc(Cl)cc1 (stereo unspecified)
→ 5.2	6.8	2	/	-3.1	10	i
CC(=O)Nc1ccc(C(=O)N(C)c2ccccc2)cc1
→ 0.2	-1.8	-6	0.73	-3.9	-15	/
CC(C)(C)n1nnnc1C(c1ccncc1)N(Cc1ccccc1)Cc1ccco1 (stereo unspecified)
→ 1.6	-1.9	-8	0.73	3.0	2	/
C[C@H](CO)N1C[C@H](C)[C@@H](CN(C)C(=O)Nc2ccc(C(F)(F)F)cc2)Oc2c(NC(=O)NC3CCCCC3)cccc2C1=O
→ -4.0	6.6	-7	/	-2.6	-3	i
COc1ccccc1NC(=O)COc1ccc(Br)cc1CNCCCN1CCOCC1
→ 3.8	0.1	-2	0.67	1.1	3	i
O=C(CSc1nnc(COc2cccc3cccnc23)o1)N1CCc2ccccc21
→ -2.5	1.1	-24	0.74	-7.5	3	/
CCCCn1nnc(N(C(=O)c2cccs2)C(=O)c2cccs2)n1
→ 1.8	5.7	/	0.64	/	-3	i
CCCNC(=O)c1ccc(COc2ccc(Cl)cc2)o1
→ -1.7	2.6	8	0.67	-0.4	0	i
Cc1ccc(S(=O)(=O)Oc2ccc(C3C4=C(CCCC4=O)OC4=C3C(=O)CCC4)cc2)cc1
→ 0.5	0.0	-1	0.75	-1.8	7	/
c1ccc(-c2nc3c4ccccc4ccn3c2CN2CCCCC2)cc1
→ -0.6	-0.3	1	0.68	-3.3	-1	i
CCN(CC)C(=O)Cn1cc(S(=O)(=O)CC(=O)Nc2ccccc2F)c2ccccc21
→ 1.5	0.0	/	0.73	-2.2	12	i
CCCCNC(=O)CN1C(=O)COc2ccc(S(=O)(=O)N3CCCCCC3)cc21
→ 2.9	3.7	0	0.74	-0.2	5	i
CN1CCN(c2ccc(NC(=O)c3cccc(OCc4ccccc4)c3)cc2)CC1
→ 4.9	2.8	-13	0.64	0.1	20	/
O=[N+]([O-])c1ccc(N2CCN(c3ccccc3F)CC2)c(S(=O)(=O)N2CCOCC2)c1
→ -3.1	1.7	-11	0.69	2.8	1	/
CC1CCN(C(=O)CCCOc2cc(=O)n(C)c3ccccc23)CC1
→ 2.1	4.3	-23	0.67	0.8	5	/
COc1ccc(NC(=O)CC(C)(C)C)c([N+](=O)[O-])c1
→ 0.6	1.2	-5	0.74	3.4	-2	/
Cc1cc(NC(=O)CSCC(=O)NCc2cccc(C(F)(F)F)c2)no1
→ 4.7	4.5	-7	0.7	2.7	-5	i
COC(=O)C1=C(C)C(c2ccc(OC)cc2OC)NC(=O)N1 (stereo unspecified)
→ -3.8	0.3	1	0.8	-1.1	24	/
CCC(C)NC(=O)CSc1ccc(NC(C)=O)cc1 (stereo unspecified)
→ 2.6	-0.1	-3	0.69	-0.3	6	/
COc1ccc(OCCSc2nnc(Cc3cccc4ccccc34)n2N)cc1
→ -0.7	0.2	2	0.7	0.8	2	/
Cc1cc(C)cc(NC(=O)COC(=O)Cc2ccccc2F)c1
→ -1.1	-1.4	/	0.65	/	2	i
COc1ccc(/C=C/C(=O)NCc2cnn(C)c2C)cc1COc1ccc(Br)cc1
→ -2.0	-1.0	0	0.72	2.0	30	i
CCOc1ccccc1CN1CCN(CC2=Cc3cc(OC)ccc3OC2)CC1CCO (stereo unspecified)
→ -0.6	3.6	-9	0.69	-6.1	3	i
O=C(Nc1nc2ccccc2[nH]1)c1cccc(Cl)c1
→ 1.8	-0.4	0	0.66	-4.6	-3	i
Cc1ccc(N=Nc2ccc(O)cc2)c(Br)c1
→ -0.6	7.6	92*	0.6	4.5	-1	/
Cc1onc(-c2c(F)cccc2Cl)c1C(=O)N(C)C1CCCCC1
→ 1.6	0.7	-3	0.69	2.4	2	i
CCCCn1c(N(CCOC(C)=O)C(C)=O)nc2ccccc21
→ -4.7	1.5	-16	0.72	-3.0	1	/
CC1=NN(c2nc(-c3ccccc3)cs2)C(=O)C1
→ -1.4	5.2	-1	0.73	-4.0	19	/
CCN(CC)C(=O)CSc1nnc(-c2ccco2)n1N
→ 1.7	1.1	-14	0.7	-7.4	-9	/
COc1ccc(S(=O)(=O)NCC(=O)N(CC(=O)NCC2CCCO2)c2ccccc2C)cc1 (stereo unspecified)
→ -2.8	1.4	2	0.68	-1.4	-3	/
CCN(CC)CCNC(=O)/C(=C\c1cccn1C)NC(=O)c1cccs1
→ 0.1	14	11	0.7	5.2	-1	i
O=C(NNc1c(Cl)cc(Cl)cc1Cl)c1n[nH]c(=O)c2ccccc12
→ 0.7	1.8	-15	0.69	-0.5	-6	i
Nc1nc(N)nc(-c2cccc(Cl)c2Cl)n1
→ -0.2	0.3	-4	0.68	-1.7	4	i
Cc1ccc(/C=C2\SC(=S)N(CCC(=O)NNS(=O)(=O)c3ccccc3)C2=O)cc1
→ 2.9	6.6	-2	0.69	3.1	-5	i
CC(=O)c1cccc(NC(=O)C2CC(=O)N(c3cccc(C)c3C)C2)c1 (stereo unspecified)
→ -1.4	3.1	-10	0.7	-3.5	-11	/
C=CCOC(=O)C1=C(C)NC(SCC(N)=O)=C(C#N)C1c1ccc(C)cc1 (stereo unspecified)
→ -2.5	-13	/	0.66	1.2	0	i
CCOC(=O)c1sc(=S)n(Cc2ccccc2)c1C
→ -6.5	3.1	/	0.68	-5.9	4	i
CN(C)c1nc2c(c(=O)n(C)c(=O)n2C)n1Cc1ccccc1
→ -0.3	4.6	15	0.71	-2.3	-10	/

(next part)
Every second line gives: HNF4A DNA FP	UCH37 inh	ALR H2O2 inh	Ecoli growth	LANA-H2B inh	Beta2AR agonist	FGF22 binding
Cc1noc(NC(=O)c2cccc(Cl)c2Cl)c1C#N
→ 2.3	1.2	-2	0.65	1.9	0	+
CCOC(=O)c1c(C)[nH]c(C(=O)Nc2ccc3c(c2)OCO3)c1C
→ /	3.8	/	0.66	2.9	/	/
COc1ccc(C2N(C(C)=O)CCCN2S(=O)(=O)c2ccc(C)cc2)cc1 (stereo unspecified)
→ 1.5	5.4	-2	0.7	3.7	3	i
CCOC(=O)c1c(C)[nH]c(C)c1S(=O)(=O)N(C)CC(=O)NCc1ccc(F)cc1
→ 1.2	3.2	0	0.74	3.1	0	i
Cc1cc2c3c(c1)C(C)(c1ccccc1)CC(C)(C)N3C(=O)C21C(C#N)=C(N)OC2=C1C(=O)CC(C)(C)C2 (stereo unspecified)
→ -3.2	4.8	-7	0.69	0.7	17	/
COc1ccc(N2CCN(CCNC(=O)CCCn3c(=O)[nH]c4cc(Cl)ccc4c3=O)CC2)cc1
→ 0.5	5.6	/	0.77	19*	-12	/
CC(C)Oc1cc(N)c(Cl)cc1Cl
→ 2.2	2.8	/	0.64	-2.9	23	i
NS(=O)(=O)c1cccc(NC(=O)COC(=O)CC2Sc3ccccc3NC2=O)c1 (stereo unspecified)
→ 1.6	1.9	-10	0.72	3.5	2	i
Cn1c(C(=O)O)c(CC(=O)Nc2ccc(F)cc2F)c2ccccc21
→ 0.1	2.8	-3	0.71	-1.4	1	/
NC(=O)C1CCN(C(=O)CN(c2cccc(Cl)c2)S(=O)(=O)c2ccccc2)CC1
→ 2.0	4.4	-14	0.71	-2.4	-3	i
Cc1ccc(Nc2c([N+](=O)[O-])c(=O)oc3ccccc23)cc1
→ -0.9	5.4	-3	0.61	-1.2	-2	i
CCCCCCNCc1cccc(Br)c1
→ 1.7	3.0	-1	0.65	6.8	-10	/
CC1C/C(=N\NC(=S)NCc2ccccc2)CC(C)(C)C1 (stereo unspecified)
→ 3.3	/	36	/	-1.7	-14	/
Cn1c(NCc2cccs2)nc2ccccc21
→ 5.3	3.4	?	0.7	22*	-12	/
COC(=O)CNC(=O)C(C)(C)Oc1ccc(Cl)cc1
→ 1.1	2.6	-9	0.69	-3.1	11	/
O=C(CCC1CCN(C(=O)c2cncs2)CC1)Nc1ccccc1
→ 4.4	-2.4	-3	0.69	-1.0	-3	i

Ordered by heavy-atom count (lowest first): 3 of the compounds above.
Every second line gives: HNF4A DNA FP	UCH37 inh	ALR H2O2 inh	Ecoli growth	LANA-H2B inh	Beta2AR agonist	FGF22 binding
CCCCCCNCc1cccc(Br)c1
→ 1.7	3.0	-1	0.65	6.8	-10	/
Cc1ccc(Nc2c([N+](=O)[O-])c(=O)oc3ccccc23)cc1
→ -0.9	5.4	-3	0.61	-1.2	-2	i
CCOC(=O)c1c(C)[nH]c(C(=O)Nc2ccc3c(c2)OCO3)c1C
→ /	3.8	/	0.66	2.9	/	/
